RecA splice inh = Mtb RecA intein splicing inhibitors, primary screen, biochemical, fluorescence, HTS. Protein RecA (Mycobacterium tuberculosis (strain ATCC 25618 / H37Rv)), P9WHJ3. cell-free RecA intein splicing. inhibition, %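 (about 9 µM by stock and volumes)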. 290,000 compounds, 0.75% hits; in the data active = inhibition above about 30%; inconclusive = no clear call, values can overlap the other calls;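 also: 0% = vehicle wells and 100% = reference inhibitor control wells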
Target sequence (P9WHJ3 whole entry, looked up, canonical isoform): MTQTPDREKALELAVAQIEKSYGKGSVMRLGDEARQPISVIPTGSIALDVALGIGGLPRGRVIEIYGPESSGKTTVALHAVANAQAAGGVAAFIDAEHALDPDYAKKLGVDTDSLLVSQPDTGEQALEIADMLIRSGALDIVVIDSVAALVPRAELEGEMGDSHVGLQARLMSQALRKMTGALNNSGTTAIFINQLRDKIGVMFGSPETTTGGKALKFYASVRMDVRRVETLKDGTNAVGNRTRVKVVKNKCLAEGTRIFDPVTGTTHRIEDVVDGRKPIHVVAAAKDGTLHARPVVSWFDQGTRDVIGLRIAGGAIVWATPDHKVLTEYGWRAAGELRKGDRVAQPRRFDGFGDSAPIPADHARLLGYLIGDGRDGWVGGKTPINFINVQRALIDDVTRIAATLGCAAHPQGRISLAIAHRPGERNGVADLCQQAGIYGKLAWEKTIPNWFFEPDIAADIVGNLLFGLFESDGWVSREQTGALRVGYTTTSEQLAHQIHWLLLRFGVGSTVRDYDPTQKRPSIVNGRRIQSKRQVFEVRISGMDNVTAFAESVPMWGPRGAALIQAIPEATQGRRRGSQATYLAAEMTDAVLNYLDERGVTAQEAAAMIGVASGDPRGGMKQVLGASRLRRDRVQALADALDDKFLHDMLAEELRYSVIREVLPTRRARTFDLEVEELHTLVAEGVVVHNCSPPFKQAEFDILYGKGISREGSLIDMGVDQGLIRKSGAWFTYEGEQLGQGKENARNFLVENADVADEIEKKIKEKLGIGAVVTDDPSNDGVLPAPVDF
Arbovirus inh = antivirals against arbovirus infection, primary screen, cell-based, full library, 10K replicate subset | inhibition, % at 10 µM | arbovirus infection cell-based antiviral screen | AID 1251, 2008 | 200,000 compounds, 0.37% hits;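 active = inhibition from about 30%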;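 also: bluetongue infection of BSR cells; cell survival read as ATP light after 72 h; 0% = infected wells without compound and 100% = uninfected wells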
YopH inh = YopH tyrosine phosphatase inhibitors, primary screen, biochemical, fluorescence Ex485/Em525; YopH tyrosine phosphatase [Yersinia enterocolitica]; inhibition, %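 (about 10 µM by stock and volumes)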; 140,000 compounds, 0.16% hits; AID 898, 2007;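 active = inhibition of 50% or more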;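 also: controls were vehicle for no effect and minimum signal wells for full effect; inactives centre near -20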
Mtb bLac sens = beta-lactam sensitization of Mtb H37Rv, H37Rv. M. tuberculosis H37Rv growth with meropenem, percent inhibition; hits of this screen are not shown here. inhibition, % at 25 µM. 330,000 compounds, 0.27% hits. AID 434955, 2010;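 active = about 74% or more and at least 40 points above the plate without the antibiotic, then above 30% in a dose series; inconclusive = first-round hits that could not be retested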;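 also: growth measured after seven days incubation then overnight dye step; 0% = bacteria only wells and 100% = bacteria with antibiotic; twin plates without the antibiotic show which effects depend on it; some results filed as inactive read as strong as hits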
Mtb growth = M. tuberculosis H37Rv growth inhibitors, H37Rv strain (AID 1626). M. tuberculosis H37Rv growth inhibition; higher % means a stronger effect. inhibition, % at 10 µM, or IC50 in µM where a hit was titrated. 220,000 compounds, 0.95% hits;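 active = confirmed in a dose series; inconclusive = inhibition above 80% but not taken into the dose series; inactive = below 80% or under 30% at every dose of the series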;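 also: bacteria incubated seven days before Alamar blue readout; 0% = bacteria only wells and 100% = bacteria with antibiotic wells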
Arbovirus inh repeat = further read-out of Arbovirus inh, marked with its call; inhibition, %; measured here: 10K subset replicate screen; many hits read low in the repeat;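 first of two repeat runs on a subset; 0% = infected and 100% = uninfected wells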
Starred values were filed as active, the others as inactive; ? = inconclusive; / = no result given.

The opening 13 records, ahead of the listing:
SMILES | RecA splice inh | Arbovirus inh | YopH inh | Mtb bLac sens | Mtb growth | others
O=C(Nc1ccccc1Oc1ccccc1)c1cccc([N+](=O)[O-])c1 | 3.8 | -7 | -42 | -4 | -10%
COC(=O)C(C(=O)Nc1cc(C)on1)C1CCCCCC1 (stereo not drawn) | 6.2 | -7 | -26 | -5 | 9%
Cc1ccc(CSCCC(=O)NCCc2ccc(Cl)cc2)cc1 | 0.6 | -7 | -23 | 3 | -7%
COC(=O)CN1C(=O)COc2ccc(S(=O)(=O)NCc3ccc(Cl)cc3)cc21 | 0.6 | / | / | -1 | /
Clc1ccc(CN2CCN(/N=C/c3ccco3)CC2)cc1 | 0.3 | 10 | / | -3 | -6%
O=C(CNc1ccccc1)N/N=C/c1cc([N+](=O)[O-])ccc1N1CCCC1 | -0.9 | 1 | -26 | -17 | 4%
O=C(Nc1ccc(N2CCCC2=O)cc1)c1cncc(Br)c1 | -1.7 | / | / | -3 | /
COc1ccc(C(=O)c2c[nH]c(C(=O)N=CN(C)C)c2)cc1 | -2.1 | 6 | / | -2 | -5%
O=C(CCCc1cccs1)Nc1ccc2c(c1)OCO2 | 1.6 | -3 | / | 37 | 60%
Clc1ccc(Cc2ccc(Cl)nn2)c(Cl)c1 | 3.8 | -4 | -15 | -11 | -18%
COc1ccc(NC(=O)[C@H](COCc2ccccc2)NC(=O)OC(C)(C)C)cc1 | -3.0 | 2 | -2 | -8 | 0%
Cc1ccc(OCCN2C(=O)c3ccccc3C2=O)cc1 | 0.5 | 3 | -16 | -10 | -6%
S=c1[nH]nc(COc2ccccc2)n1/N=C/C(Cl)=C/c1ccccc1 | 4.4 | -37 | -11 | 12 | 7%

This part in full, repeating the preview:
SMILES | RecA splice inh | Arbovirus inh | YopH inh | Mtb bLac sens | Mtb growth | others
O=C(Nc1ccccc1Oc1ccccc1)c1cccc([N+](=O)[O-])c1 | 3.8 | -7 | -42 | -4 | -10%
COC(=O)C(C(=O)Nc1cc(C)on1)C1CCCCCC1 (stereo not drawn) | 6.2 | -7 | -26 | -5 | 9%
Cc1ccc(CSCCC(=O)NCCc2ccc(Cl)cc2)cc1 | 0.6 | -7 | -23 | 3 | -7%
COC(=O)CN1C(=O)COc2ccc(S(=O)(=O)NCc3ccc(Cl)cc3)cc21 | 0.6 | / | / | -1 | /
Clc1ccc(CN2CCN(/N=C/c3ccco3)CC2)cc1 | 0.3 | 10 | / | -3 | -6%
O=C(CNc1ccccc1)N/N=C/c1cc([N+](=O)[O-])ccc1N1CCCC1 | -0.9 | 1 | -26 | -17 | 4%
O=C(Nc1ccc(N2CCCC2=O)cc1)c1cncc(Br)c1 | -1.7 | / | / | -3 | /
COc1ccc(C(=O)c2c[nH]c(C(=O)N=CN(C)C)c2)cc1 | -2.1 | 6 | / | -2 | -5%
O=C(CCCc1cccs1)Nc1ccc2c(c1)OCO2 | 1.6 | -3 | / | 37 | 60%
Clc1ccc(Cc2ccc(Cl)nn2)c(Cl)c1 | 3.8 | -4 | -15 | -11 | -18%
COc1ccc(NC(=O)[C@H](COCc2ccccc2)NC(=O)OC(C)(C)C)cc1 | -3.0 | 2 | -2 | -8 | 0%
Cc1ccc(OCCN2C(=O)c3ccccc3C2=O)cc1 | 0.5 | 3 | -16 | -10 | -6%
S=c1[nH]nc(COc2ccccc2)n1/N=C/C(Cl)=C/c1ccccc1 | 4.4 | -37 | -11 | 12 | 7%
CCN(CC(=O)NCc1ccc(Cl)cc1)C(=O)COc1ccc(Cl)cc1Br | 15 | / | / | -1 | /
COc1ccc(NC(=O)CSc2nc3ccccc3nc2N2CCCC2)cc1 | -0.6 | / | / | -6 | /
COc1ccc(NC(=O)CS(=O)c2ccc(F)cc2)cc1 (stereo not drawn) | 1.1 | / | / | -2 | /
Cc1ccccc1OC(C)C(=O)NCc1cccnc1 (stereo not drawn) | 0.1 | 6 | / | -3 | 1%
O=C(CCc1ccccc1)NNc1cc(N2CCCCC2)nc(N2CCCCC2)n1 | 0.8 | -3 | / | -2 | 26%
ClCCCc1cn(C[C@H]2CC[C@@H]([C@@H]3CC[C@H](Cn4cc(CCCCl)nn4)O3)O2)nn1 | -0.8 | / | / | -5 | /
O=C(CCN1C(=O)C2C3CCC(C3)C2C1=O)Nc1ccc([N+](=O)[O-])cc1 (stereo not drawn) | -0.5 | 6 | / | -1 | -2%
COc1ccccc1CCNC(=O)Cn1c(=O)oc2ccccc21 | -0.8 | / | / | 1 | /
CCOc1ccc(CSC2=NCCN2)cc1[N+](=O)[O-] | 2.2 | -6 | -22 | -6 | 0%
CCOC(=O)c1nn(-c2ccc(OCC)cc2)c2nc(-c3ccco3)c(C#N)c(=O)n12 | -29 | -10 | -2 | 79 | 69%
OCc1nc2nc(Cl)c(Cl)nc2[nH]1 | -4.5 | / | / | 3 | -1%
CNc1ncnc2sc(-c3ccccc3)cc12 | 1.7 | -8 | / | 4 | 0%
Cc1ccc2[nH]c(=O)c3cc(C(=O)N(C)c4ccccc4C)sc3c2c1 | -1.2 | / | / | -5 | 3%
NNC(=O)C(=O)NCCCN1CCOCC1 | -0.4 | -1 | / | -1 | -7%
O=C(NCc1ccc(Cl)cc1)N1CCOCC1 | -1.1 | / | / | -2 | /
Cc1cccc(NC(=O)c2ccc(C3SCC(=O)N3CCc3ccccc3)cc2)c1C (stereo not drawn) | -1.4 | -12 | -3 | ? | 7%
CCCNc1c(NC(=O)C2CCC(C)CC2)c(=O)oc2ccccc12 (stereo not drawn) | 1.2 | / | / | ? | /
Cn1cnnc1SCC(=O)NCc1ccccc1 | / | -2 | / | -14 | 0%
O=C(c1ccc(OC2CCN(CCc3ccccc3)CC2)cc1)N1CCCC(CO)C1 (stereo not drawn) | -1.7 | 0 | / | -3 | 4%
COCCCNC(=S)NCCNc1nc2cc(C)cc(C)c2cc1C#N | -17 | 5 | / | 1 | 2%
O=[N+]([O-])c1cc(/C=N/N/C(=N/c2ccccn2)c2ccccn2)ccc1O | -4.3 | 1 | / | 24 | 18µM*
NC(=O)c1ccsc1NC(=O)c1ccco1 | -0.4 | 2 | 2 | -4 | 7% | Arbovirus inh repeat=-5
COc1ccc(C2=NCC(=S)Nc3ccc(Cl)cc32)cc1OC | -1.1 | / | / | 6 | /
Cc1c(Cl)c([N+](=O)[O-])nn1CCCC(=O)O | 2.0 | 2 | / | -16 | -3%
O=C(/C=C/c1ccc(Cl)cc1)NCCSc1ccccc1 | 1.3 | 2 | -32 | 11 | /
O=C(NCc1ccc(F)cc1)c1cnc(Cl)c(Cl)c1 | 0.1 | / | / | -1 | /
C/C(=N\Nc1ccc(C(=O)O)cc1)c1ccc(Br)cc1 | -2.7 | / | / | 11 | -6%
Cc1ccc2nc(SCC(=O)c3ccc(O)cc3O)[nH]c2c1 | 0.0 | / | / | -6 | 2%
CN1CCN(NC(=O)c2ccc(Cl)c([N+](=O)[O-])c2)CC1 | -3.6 | 2 | -5 | 2 | 2%
Cc1ccc(/C=C2\SC(=S)N(CCC(=O)NNC(=O)c3ccccc3O)C2=O)cc1 | -0.1 | / | / | 3 | /
COc1ccc(NC(=S)N(Cc2ccccn2)Cc2ccccc2Cl)cc1 | 6.0 | 7 | / | 28 | 5%
COCCCNC(=O)c1ccc(CS(=O)(=O)Cc2cccc(C)c2)o1 | 0.1 | -1 | -43 | -3 | /
Cc1ccc(O)c(-n2nc3ccccc3n2)c1 | 3.4 | 1 | / | -3 | -2%
N#CC1=C(N)NC(SCc2ccc(Cl)cc2)=C(C#N)C12CCCCC2 | 27 | -35 | -12 | 64 | 11%
O=C(COc1cccc2c1CCN(Cc1ccc(Br)cc1)C2=O)N1CCOCC1 | -0.2 | -17 | / | 14 | -1%
CCOC(=O)N1CCN(C(=O)COc2ccc3c(c2)C(=O)CC(C)(C)O3)CC1 | -15 | 2 | / | -1 | 1%
Fc1ccc(-c2cc(C(F)(F)F)n3ncnc3n2)cc1 | -2.2 | 0 | / | 0 | -1%
COc1ccc(CCNC(=O)/C(C#N)=C/c2cccc(OCc3ccccc3)c2)cc1OC | 6.4 | -10 | -20 | 12 | 10%
NS(=O)(=O)c1ccc(CCNC(=O)CSc2nc3ccsc3c(=O)n2CCCCC(=O)O)cc1 | -1.7 | 10 | / | 1 | -3%
Cc1ccc(S(=O)(=O)N2CCCC2)cc1S(=O)(=O)N1CCCC1 | 0.3 | 1 | 7 | 0 | -2%
CC(=O)NC1CC2CCCC(C1)N2CC(=O)N1CCCc2ccccc21 (stereo not drawn) | -0.9 | 6 | -75 | -10 | -4%
CN(C(=O)CSc1ncccn1)C1CCS(=O)(=O)C1 (stereo not drawn) | -22 | / | / | -3 | /
CN1CCC(Oc2ccccc2Sc2ccccc2)CC1 | 9.3 | -19 | -14 | -5 | 9%
CC(OC(=O)c1ccc(Cl)nc1)C(=O)Nc1ccc(S(=O)(=O)N2CCCC2)cc1 (stereo not drawn) | 0.0 | / | / | 1 | /
C=CCN1C(=O)/C(=c2\sc3nc(=O)c(Cc4ccccc4)nn3c2=O)c2ccccc21 | 0.4 | / | / | 51 | -7%
COC(=O)Nc1ccc(SCC(=O)c2ccc(Cl)cc2)cc1 | / | -16 | / | 4 | 2%
CCOc1ccccc1NC(=O)Cn1c(=O)c2ccccc2n(CC)c1=O | -1.3 | -8 | -38 | -1 | -3%

The list continues:
SMILES | RecA splice inh | Arbovirus inh | YopH inh | Mtb bLac sens | Mtb growth | others
COc1cc(NC(=O)CCCn2c(=S)[nH]c3ccccc3c2=O)cc(OC)c1OC | 2.2 | 9 | / | 3 | -2%
CCOc1ccc2nc(SCC(=O)N(CC(C)C)c3c(N)n(Cc4ccccc4)c(=O)[nH]c3=O)[nH]c2c1 | -0.7 | / | / | -3 | /
CCC1=NN(C(=O)COc2ccccc2C)C(O)(c2ccncc2)C1 (stereo not drawn) | 2.1 | 8 | / | -5 | 1%
O=C(c1ccc([N+](=O)[O-])s1)N1CCN(c2ccccc2)CC1 | -3.4 | -5 | -9 | 99 | 3%
CC(=O)Nc1nc2ccccc2n1Cc1ccc(C)cc1 | 1.1 | -3 | / | 97 | ?
Cc1[nH]n(-c2ccccc2)c(=O)c1C(c1ccccc1C(=O)O)c1c(C)[nH]n(-c2ccccc2)c1=O | -1.4 | 4 | -35 | 0 | 1%
COC(=O)c1ccc(C)c(-n2c(C)cc(C=O)c2C)c1 | 0.9 | -5 | -10 | 5 | 4%
Cc1cc(C)c(NC(=O)CN(C2CCCCC2)C2CCCCC2)c(C)c1 | 2.6 | -18 | -13 | 19 | 26%
COC(c1ccccc1)c1nnc(CCC(=O)NCCCc2ccccc2)o1 (stereo not drawn) | 5.9 | 0 | / | -7 | -8%
C=CC(=O)NCc1ccc(-c2csnn2)cc1 | 1.6 | / | / | 4 | -3%
Cc1nc(N2CCOCC2)c(C#N)c2c1COC(C)(C)C2 | -1.6 | -4 | -16 | 0 | -2%
Brc1cccc(-c2nnc(-c3ccccc3)o2)c1 | / | 11 | -10 | 18 | 7%
Cc1cc(F)ccc1NCc1cc2c(cc1[N+](=O)[O-])OCO2 | / | -2 | -36 | 1 | -12%
O=C(Nc1ccc(Br)cc1)C1Cc2ccccc2O/C1=N\O (stereo not drawn) | 0.2 | / | / | 1 | /
CC(=O)Nc1ccc(Oc2nc(C(F)(F)F)nc3ccccc23)cc1 | -1.3 | / | / | 2 | /
CN1CCC(OC(=O)COc2ccc(Br)cc2)CC1 | 2.7 | 2 | / | 4 | -1%
Cc1ccc(-c2cc(C(=O)NCc3cnn(C)c3)c3cc(Br)ccc3n2)cc1 | 7.6 | -22 | -53 | 7 | 3%
CCOc1ccc(NCC(=O)Nc2ccc(Cl)cc2C)cc1 | 9.2 | -9 | 23 | 99 | 8.5µM*
CCn1c(C)nc2cc(S(=O)(=O)N3CCCCC3)ccc21 | -3.6 | 14 | -27 | -3 | -11%
CNC(=S)N(Cc1ccc(OC)cc1)C1CC(=O)N(c2ccc(C(=O)OC)cc2)C1=O (stereo not drawn) | 2.1 | -8 | -29 | 2 | 8%
Cc1cc(NC(=O)COC(=O)CSCc2ccc(Cl)c(Cl)c2)no1 | 2.2 | 4 | 0 | 17 | -4%
CC(c1ccc(Br)cc1)N1CC23C=CC(O2)C(C(=O)O)C3C1=O (stereo not drawn) | -1.5 | 11 | -27 | 1 | 0% | Arbovirus inh repeat=10

Screening data as filed in PubChem BioAssay.

Only part of the results is shown; count on the stated rates, not on these rows.
